GLA inh pH 4.5 = blocks human alpha-galactosidase A at pH 4.5 | P06280 | 230,000 tested, under 10 active | AID 1467 | purified enzyme, 4-MU-alpha-Gal fluorescence, pH 4.5 | activity change, negative = inhibition, % at 105 µM; inconclusive = small, poorly fitted or top-dose-only inhibition, or a rising curve; inactive = flat fitted curve, though single readings scatter; no compound was filed as active;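 note: 0% = full activity with enzyme and -100% = basal without enzyme; dose as in the result columns while the protocol names 77 µM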
Target sequence (P06280 whole entry, looked up): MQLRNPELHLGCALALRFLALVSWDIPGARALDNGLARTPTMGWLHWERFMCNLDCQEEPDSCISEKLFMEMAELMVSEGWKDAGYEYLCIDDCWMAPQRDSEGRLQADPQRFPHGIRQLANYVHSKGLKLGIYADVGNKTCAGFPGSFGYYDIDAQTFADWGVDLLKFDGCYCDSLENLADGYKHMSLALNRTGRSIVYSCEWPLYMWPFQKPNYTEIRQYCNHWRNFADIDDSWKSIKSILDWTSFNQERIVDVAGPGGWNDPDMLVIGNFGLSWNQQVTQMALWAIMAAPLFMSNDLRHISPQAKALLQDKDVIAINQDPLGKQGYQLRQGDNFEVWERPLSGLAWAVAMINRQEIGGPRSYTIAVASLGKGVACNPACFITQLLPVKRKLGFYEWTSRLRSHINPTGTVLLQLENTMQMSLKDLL
Rango-impB inh = prevents formation of the Rango-importin beta complex. Q14974. Rango CFP/YFP FRET sensor + importin beta, 45 min. Potency, µM (doses to about 92.2 µM), inactives show at the highest dose inhibition of complex formation. 0.031% of 340,000 active. AID 540263; active = rising FRET ratio curve, often small or poorly fitted; inconclusive = mostly compound fluorescence or quenching in the first reads; inactive = flat curves in all reads;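 note: potency is the fitted concentration of half-maximal effect; 0% = DMSO wells and 100% = buffer wells lacking importin beta; nearly all actives have a fitted effect of over 15% in size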
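FRET biosensor Rango (snurportin 1 IBB between N-terminal EYFP and C-terminal Cerulean), 50 nM in PBS/1 mM DTT/0.02% Tween-20/0.1% BSA, preincubated 5 min RT with compound; 0.125 microM importin beta added, 45 min RT, CFP/YFP FRET ratio read.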
miR-21 reporter = miR-21 reporter, rising signal. HeLa miR-21 FLuc reporter, luciferase, 48 h. Potency, µM (highest dose often 38.3 µM), without a hit: top-dose reporter change, positive = more light. 340,000 tested, under 10 active; active = well fitted rising curve with a large enough effect; inconclusive = small, poorly fitted or top-dose-only effect; inactive = no such curve, though single readings can be large or run the other way;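 note: % of control where 0% means no effect; miR-21 action dims this reporter so a rising signal means less miR-21 action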
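Using DMEM plus 10% FBS, HeLa miR-21-FLuc cells are incubated with test compounds (final up to about 40uM) for 48 hours; firefly luciferase signal is then imaged following reagent-mediated lysis.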
Rango release inh = inhibitors of RanGTP-induced Rango-importin beta complex dissociation; 0.071% of 340,000 active; O95149+P62826; Biochemical FRET Rango-importin beta, RanGTP-induced dissociation; Potency, µM (doses to about 46.1 µM), without a hit: top-dose activity change, negative = inhibition; active means falling FRET ratio curve, often poorly fitted, with flat reads before Ran was added; inconclusive means other falling curves, or compound fluorescence or quenching; inactive means flat or rising ratio curve;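 note: potency is the fitted concentration of half-maximal effect; % of control where 0% means no effect; nearly all actives have a fitted effect of over 45% in size; -100% = wells without RanGTP and RCC1; the record marks most hits as doubtful in a second field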
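Compounds preincubate 5 min with complex of recombinant Rango and importin beta in PBS with 1 mM DTT. Ran (0.6 uM) loaded with 2 mM GTP plus 0.2 uM RCC1 starts dissociation; FRET is recorded 45 min later.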
* = called active by the depositor; u = inconclusive; x = no result given; & = joins results of further samples. The list is partial. The share of hits here may be higher or lower than overall.

GLA inh pH 4.5	Rango-impB inh	miR-21 reporter	Rango release inh	Molecule
x	-4.5%	x	0%	CC(C)c1ccc(C(C(C(=O)c2ccccc2)N2CCOCC2)N2CCOCC2)cc1 (stereo not given)
3	1.5%	0%	-11%	Cn1c(=O)c2sccc2n2c(CCCC(=O)NCc3ccc4c(c3)OCO4)nnc12
x	-2.2%	x	-7%	Cn1c(=O)[nH]c(N)c(Br)c1=O
-7	0.1%	9%	1%	COC(=O)c1ccc(COC(=O)c2[nH]c(C)c(C(C)=O)c2C)o1
-5	u	1%	-10%	O=C(O)COc1ccccc1O
9	0.4%	-21%	5%	CCOc1ccc2oc(C(=O)OCC(=O)NC(=O)NC3CCCC3)c(C)c2c1
6	-4.1%	-5%	-4%	CC(C)NC(=S)N(CCc1ccncc1)C(C)C
-6	-1.4%	0%	-9%	CCCCC1C2=C(CC(C)(C)CC2=O)OC2=C1C(=O)CC(C)(C)C2
5	x	-20%	x	CCOCC(=O)Nc1cc(C(=O)Nc2cc(C)cc(C)c2)ccc1Cl
0	4.2%	-2%	16%	C=CCNc1nc(Cl)nc(Nc2ccc([N+](=O)[O-])cc2)n1
x	-3.1%	u	4%	Cc1ccccc1OCC(O)CNC1CCC(NCC(O)COc2ccccc2C)CC1 (stereo not given)
-2	5.5%	-10%	31%	COc1ccccc1N(CCC#N)C(=O)CSc1nc(-c2ccccc2)cn1N
4	-2.0%	-6%	1%	CCCOc1cc(CC(=O)NCc2ccco2)ccc1OC
x	2.4%	-10%	18%	COc1cc2ccccc2cc1C(=O)NC(=S)Nc1ccc(C(=O)O)cc1
2	-0.2%	26%	1%	CCOC(=O)c1c(NC(=O)c2c(Br)cnn2C)c(C#N)nn1-c1ccccc1
x	-3.7%	x	-17%	COc1ccc(NC(=O)Nc2cccc3c2O[C@@H](CN(C)S(=O)(=O)c2cn(C)cn2)[C@@H](C)CN([C@H](C)CO)C3=O)cc1
x	0.1%	-1%	1%	CCOc1ccccc1NC(=O)Nc1ccsc1C(=O)OC
x	-3.3%	-1%	5%	CCCc1cc(=O)oc2cc(C)cc(OCC(=O)N3CCC(C(N)=O)CC3)c12
x	4.1%	0%	-8%	CN(CC(=O)NCc1ccc(F)cc1)S(=O)(=O)c1ccc2c(c1)c(=O)n(C)c(=O)n2C
x	6.8%	-2%	-4%	O=C(Nc1nncs1)c1cc(-c2ccncc2)nc2ccc(Cl)cc12
x	-4.2%	-3%	-3%	CN(CCC1CCOCC1)C(=O)CC1C(=O)NCCN1Cc1c(F)cccc1Cl (stereo not given)
x	0.3%	x	-6%	CC1CCN(C(=O)c2[nH]cnc2C(=O)N[C@H](C)c2ccccc2)CC1
7	u	0%	2%	CC(C)Nc1nc(NC(C)C)nc(Oc2ccc(=O)n(C)n2)n1
x	0.5%	x	2%	Cc1cccc(C)c1NC(=O)CNC(=O)C1CC(=O)N(Cc2ccccc2)C1 (stereo not given)

Limited to Rango release inh, miR-21 reporter and Rango-impB inh (3 entries from above):
SMILES	Rango release inh	miR-21 reporter	Rango-impB inh
CC(C)Nc1nc(NC(C)C)nc(Oc2ccc(=O)n(C)n2)n1	2%	0%	u
CN(CCC1CCOCC1)C(=O)CC1C(=O)NCCN1Cc1c(F)cccc1Cl (stereo not given)	-3%	-3%	-4.2%
Cc1cccc(C)c1NC(=O)CNC(=O)C1CC(=O)N(Cc2ccccc2)C1 (stereo not given)	2%	x	0.5%

(more compounds)
GLA inh pH 4.5	Rango-impB inh	miR-21 reporter	Rango release inh	Molecule
-8	9.6%	1%	1%	CCOC(=O)c1nnc(-c2ccccc2)nc1Oc1ccccc1Cl
x	0.6%	x	-8%	CCN(Cc1ccccc1)C(=O)COC(=O)c1c(C)nsc1NC
-1	1.4%	1%	-7%	COc1cccc(OCCCCN2CCCCC2)c1
-5	6.0%	-4%	u	Cc1ccc2sc(NNC(=O)C3=COCCO3)nc2c1C
x	1.5%	-2%	-21%	CCOC(=O)N1CCN(Cc2nc3cc(NC(C)=O)ccc3n2C)CC1
-6	-1.2%	-5%	-8%	CCn1c(SCCC#N)nnc1-c1ccncc1
x	2.4%	x	21%	Cc1nn(-c2ccc(Cl)cn2)c2c1C(=O)CC(C)(C)C2Br (stereo not given)
-11	5.9%	-28%	0%	CCOC(=O)c1cnc(Nc2nc3ccccc3o2)nc1C
x	-0.3%	-2%	-2%	CCOC(=O)CSc1nnc(NC(=O)CN2CCN(C=O)CC2)s1
2	-2.9%	-7%	-7%	O=C(Nc1cccc(Cl)c1)Nc1nc(-c2ccccc2)cs1
3	-5.5%	1%	5%	CCOC(=O)C(=O)Nc1nc(-c2ccccc2)c(CC)s1
x	-1.2%	x	-13%	CCN(CC)C(=O)[C@H]1C[C@H](CC(=O)NCCCOC)C(=O)N2CCc3c([nH]c4cc(CCC(=O)N(C)C)ccc34)[C@]12C
-7	5.5%	-2%	-21%	Cc1ccc(OCCCCn2c(CO)nc3ccccc32)cc1
x	-2.0%	x	0%	Cc1ccc(C(=O)NCC2CCCN2S(=O)(=O)c2cccs2)cc1C (stereo not given)
4	-1.6%	-5%	15%	Cc1ccc(Cn2c(CN3CCOCC3)nc3c2c(=O)[nH]c(=O)n3C)cc1
-24	2.2%	-10%	1%	Cc1ccccc1-n1nc(-c2cccnc2)cc1C(=O)N/N=C/c1ccncc1

Looked up above:
Entry of Cc1ccc2sc(NNC(=O)C3=COCCO3)nc2c1C in miR-21 reporter: -4%
Entry of CCOC(=O)CSc1nnc(NC(=O)CN2CCN(C=O)CC2)s1 in miR-21 reporter: -2%
Entry of O=C(Nc1nncs1)c1cc(-c2ccncc2)nc2ccc(Cl)cc12 in Rango-impB inh: 6.8%

New compounds follow.
GLA inh pH 4.5	Rango-impB inh	miR-21 reporter	Rango release inh	Molecule
x	-1.0%	0%	-13%	O=C(NCCCNC(=O)c1c(F)cccc1F)c1c(F)cccc1F
-13	3.9%	-34%	-9%	COc1cc(/C=N/NC(=O)C2=NNC(=O)C2C)ccc1O (stereo not given)
0	5.2%	-21%	-11%	COc1cccc(NC(=O)Cc2nc(-c3ccccc3)sc2-c2ccc(C)cc2)c1
x	-2.2%	-24%	-2%	Cc1ccc(OCc2cc(C(=O)NCCn3cccn3)no2)cc1C
1	2.7%	-9%	7%	COC(=O)/C(=C/c1ccco1)NC(=O)c1ccccc1
-10	0.0%	-1%	8%	O=C(Nc1ccccc1C(=O)NC(Cc1ccccc1)C(=O)NC1CCCCC1)c1ccccc1 (stereo not given)
-10	1.9%	-6%	-6%	O=C(Nc1cccc(F)c1)c1cc(S(=O)(=O)N2CCC(C(=O)O)CC2)ccc1F
x	-0.9%	x	-1%	COCCCNC(=O)Cn1cnc(C(=O)Nc2ccc(C)c(C)c2)n1
-16	-1.7%	-29%	9%	COc1ccc(CNC(=O)C2CC(c3ccccc3[N+](=O)[O-])=NO2)cc1 (stereo not given)
x	5.0%	-1%&-3%	7%	COc1ccc(NC(=O)C2CCCN(S(=O)(=O)c3ccc4[nH]c(=O)ccc4c3)C2)cc1OC (stereo not given)
0	u	-5%	-5%	COc1ccc(-c2nc(CS(=O)CC(=O)NCC3CCCO3)c(C)o2)cc1 (stereo not given)
10	0.0%	1%	11%	O=C(CSc1ccccc1)NN1C(=O)c2ccccc2C1=O
x	-0.6%	-42%	12%	Cc1ccc(C(=O)COC(=O)c2cccc(N3C(=O)c4c(C)nc5ccccc5c4C3=O)c2)cc1C
-5	u	-19%	8.2µM*	COc1cc2c(cc1OC)-c1cc(OCCN3CCOCC3)nc(=O)n1CC2
3	-0.3%	1%	1%	NC(=O)COC(=O)CNC(=O)c1sc2ccccc2c1Cl
x	-1.6%	x	2%	CCN(CC)S(=O)(=O)c1ccc(OC)c(NC(=O)c2ccc(OC)c([N+](=O)[O-])c2)c1
u	u	-2%	8.2µM*	CCC1OC2(C)OC(=N)C1(C#N)C(C#N)(C#N)C2c1ccccc1 (stereo not given)
-6	3.7%	-4%	-2%	Cc1cc(NS(=O)(=O)c2ccc(NC(=O)CCN3C(=O)c4ccccc4C3=O)cc2)no1
-5	-5.0%	-1%	-21%	COC(=O)c1ccc(C(=O)OC)c(NC(=O)CCc2ccc(C)o2)c1
-8	0.2%	13%	2%	COc1cc(CC(=O)Nc2ccc3c(c2)CCC3)cc(OC)c1OC
-20	1.9%	-7%	-2%	CN(c1ccc(C(=O)NCc2ccccn2)cc1)S(C)(=O)=O
6	1.5%	-29%	6%	CC(C)C(=O)n1nc(-c2cccnc2)nc1NCc1cccs1
3	u	-9%	4%	O=S(=O)(O)c1nc2ccccc2n1CCOc1ccccc1
x	4.1%	x	-13%	CSc1nc2[nH]c(=O)[nH]c2c(=O)[nH]1
x	-0.4%	-45%	9%	CC(C)C1Oc2ccccc2C(=O)N(CC(=O)c2ccc3c(c2)OCCO3)C1=O (stereo not given)
5	0.9%	11%	2%	CCCn1c(=N)n(CCOc2ccc(OC)cc2)c2ccccc21
-8	0.7%	1%	-5%	Cn1ncc(Cl)c1C(=O)NCc1cc(C(C)(C)C)n[nH]1
x	5.0%	x	-10%	CCN1C(=O)[C@H]2[C@@H](c3ccc(-c4ccc(Cl)c(Cl)c4)cc3)N[C@@](CC(C)C)(C(=O)OC)[C@H]2C1=O
x	6.5%	50%	3%	O=C(O)c1ccc(S(=O)(=O)/N=C2\C=C(Nc3ccccc3F)C(=O)c3ccccc32)cc1
x	0.6%	-2%	-9%	CCOc1ccc(N(CC(=O)Nc2ccc(C)c(F)c2)C2=NC3CS(=O)(=O)CC3S2)cc1 (stereo not given)
x	2.5%	-1%	7%	C#CCOc1ccc2ccccc2c1/C=C(/C#N)c1ccc(C(=O)O)cc1
-2	-0.7%	-28%	8%	CCOC(=O)N1CCN(C(=O)c2ccc3c(c2)sc2nc(-c4ccc(OC)cc4)cn23)CC1
-15	u	24%	-16%	CCN(CC)c1nc(N)c2c(N)nc3c(c2c1C#N)CC(c1ccccc1)O3 (stereo not given)
x	0.9%	x	-3%	CON(C)C(=O)/C=C/c1ccc([B-](F)(F)F)cc1
4	-0.2%	-3%	-12%	O=C(CSc1nnc(-c2ccco2)n1-c1ccccc1)NCCc1ccccc1
-10	-0.2%	5%	-5%	COc1ccc(N2C(N)=C(C#N)C(c3cccnc3)C3=C2CC(C)(C)CC3=O)cc1 (stereo not given)
21	u	-24%	-9%	Nc1c(C(=O)NCc2ccccc2)sc2nc(N3CCOCC3)c3c(c12)CCCC3
0	2.9%	1%	-12%	Cc1ccc2nc(-c3cccc(N)c3)[nH]c2c1
-9	-3.1%	-13%	9%	O=C(Nc1ccc(Cl)cc1)Nc1ccccc1C(=O)NCc1ccco1
-7	u	-57%	-15%	CC(=O)c1cccc(N/C=C\C(=O)c2ccc(C)cc2)c1
x	0.5%	-61%	14%	FC(F)(F)c1ccc(NCc2ccccn2)nc1
5	1.7%	-2%	2%	N#C/C(=C\c1cn(-c2ccccc2)nc1-c1ccccc1)S(=O)(=O)c1ccccc1
-6	-0.6%	-10%	23%	c1ccc(-c2cnc(SCCN3CCOCC3)n2CC2CCCO2)cc1 (stereo not given)
0	1.3%	-3%	3%	O=C(NCc1ccccc1)c1cc(-c2ccncc2)nc2ccc(S(=O)(=O)N3CCOCC3)cc12
9	-4.2%	1%	0%	COc1cc(NS(=O)(=O)c2cccc3nsnc23)cc(OC)c1
x	1.8%	x	16%	COC(=O)CCC(=O)OC
x	1.9%	x	-8%	CCC1CCCCN1C(=O)CSc1nnc2nc(C)cc(C)n12 (stereo not given)
-7	1.2%	0%	-8%	CCOCC(O)CS(=O)(=O)c1ccccn1 (stereo not given)
x	-0.9%	x	0%	CC(=O)Nc1ccc(NCc2ccc(-c3ccccc3)cc2)cc1
9	3.1%	-3%	-3%	COc1ccc(C(=O)/C=C/Nc2c(C)n(C)n(-c3ccccc3)c2=O)cc1OC
x	3.3%	-6%	33%	O=S(=O)(c1ccc(F)cc1)N1CCN(c2ccc(F)cc2)CC1
6	-2.5%	1%	-18%	O=C(O)/C(=C\c1cn(-c2ccccc2)nc1-c1ccc(Cl)cc1)NC(=O)c1ccccc1
-5	0.5%	-41%	32%	O=C(c1ccco1)N1CCn2c1nc1ccccc12
5	3.4%	-6%	8%	COCCCNC(=S)N1CCN(S(C)(=O)=O)CC1
x	-0.2%	x	-1%	O=C1CN(N=Cc2ccco2)C(=O)N1
-2	-0.7%	7%	32%	Cc1cc(Cl)c(S(=O)(=O)N2CCN(c3cccc(C)c3C)CC2)cc1OCC(N)=O
